High-throughput results from PubChem.
nsP2pro inh – Primary qHTS for inhibitors of NSP2Pro chikungunya virus (CHIKV). AID 1964107, 2024. Potency, µM (top dose mostly 24.9 µM), for inactives: at the top dose activity change, negative = inhibition, usual class: inhibitors. FRET peptide cleavage, nsP2pro, fluorescence 1 h. 31,000 tested, 1.1% active. Polyprotein P1234 (Chikungunya virus (strain S27-African prototype)), Q8JUX6; active means well fitted inhibition curve with a large enough effect; inconclusive means small, poorly fitted or top-dose-only effect; inactive means no such curve, though single readings can be large or run the other way; note: nearly all actives have a fitted effect of over 60% in size; a reference inhibitor and vehicle were the controls
* = called active by the depositor; i = inactive; ? = inconclusive; & = joins results of further samples; [ ] = remark or other dose. % is set by controls: 0 for no effect and ±100 for the full control effect; potency is the fitted concentration of half-maximal effect.

SMILES	nsP2pro inh
CCOC(=O)C1(c2ccccc2)CCN(CCc2ccc(N)cc2)CC1	?
COc1cc(NC(=O)CCc2c(C)nn(-c3ccc4nnc(C)n4n3)c2C)cc(OC)c1OC	-8.5%
CNC[C@@H]1CC[C@@H](N)[C@@H](O[C@H]2[C@H](O)[C@@H](O[C@H]3OC[C@](C)(O)[C@H](NC)[C@H]3O)[C@H](N)C[C@@H]2N)O1	-16.6%
CN1CCN(C(=O)Cc2c[nH]c3ncc(-c4cccc(O)c4)cc23)CC1	1.3%[39.2 µM]
CC(=O)Nc1sc2c(c1-c1ccc3c(c1)OCCCO3)CCNC2	-6.9%
CN1CCN(c2ncc3c(n2)CCN(Cc2cc(Br)cs2)C3)CC1	?
CCNC(=O)c1coc(COc2ccc3c(c2)C(c2cccc(C)c2)N(C(=O)C2CC2)CC3)n1 (stereo not drawn)	i
CN(C)c1nc2c(Br)c(Br)c(Br)c(Br)c2[nH]1	2.3%
COC(=O)C1=CO[C@@H](O[C@@H]2O[C@H](CO)[C@@H](O)[C@H](O)[C@H]2O)[C@@H]2C(COC(C)=O)=C[C@H](O)[C@H]12	?
CCN1CCN(c2cccc(Nc3nn4c(=O)c5ccccc5nc4s3)c2)CC1	0.5%
COc1ccc(Cn2c(=O)[nH]c3cc(C(=O)N4CCN(c5cccc(OC)c5)CC4)ccc3c2=O)cc1	-23.1%
Cc1cccn2c(=O)c3cc(C(=O)NCCc4ccc(S(N)(=O)=O)cc4)n(C)c3nc12	-3.5%
O=C(C1=CCN2c3c(cccc31)OC[C@H]2CN1CCOCC1)c1cccc2ccccc12	30.7%
CC(=O)Oc1cc2c(cc1Cl)C(c1ccccc1C(=O)O)c1cc(Cl)c(OC(C)=O)cc1O2	-18.6%
CCOc1ccc(-c2nc(Cn3c(=O)cc(-c4ccccc4)c4c(C)nn(C)c43)c(C)o2)cc1OC	-5.7%
Nc1ncnc2c1ncn2CCNCCCCCO	17.9%
COc1ccc(-c2nnc(NC(=O)Nc3ccc4ccccc4c3)s2)cc1OC	-3.3%
Cn1c(=O)c2c(nc(Oc3ccc(C#N)cc3)n2Cc2ccc(Cl)cc2Cl)n(C)c1=O	-20.1%
CO[C@H]1C[C@H](O[C@H]2CC[C@]3(C=O)[C@H]4CC[C@]5(C)[C@@H](C6=CC(=O)OC6)CC[C@]5(O)[C@@H]4CC[C@]3(O)C2)O[C@H](C)[C@H]1O	-12.7%[10 µM]
COc1ccc(Nc2oc(/C=C/c3ccccc3OC)nc2C#N)cc1	12.3%
Cc1ccc(CN2CCn3c(nnc3[C@@H]3C[C@@H](O)CN3Cc3cccnc3)C2)o1	-9.7%
CCC(=O)Nc1ccc(CC)cc1-c1nc2ccccc2n(Cc2ccccc2)c1=O	-30.4%
CCCCNC(=O)C(CC)Sc1nnc(-c2cccc(F)c2)c(-c2cccc(F)c2)n1 (stereo not drawn)	?
O=C(O)c1cc(=O)[nH]c(=O)[nH]1	-20.9%&1.8%
Cc1cccc2oc(NC3=NC(c4[nH]ncc4Cl)C4=C(CCCC4=O)N3)nc12 (stereo not drawn)	?
COc1ccc(CN2C(=O)[C@H](OC)[C@@H]2C2=CCN(C(=O)CC(C)C)CC2)cc1	4.4%
CCCCCCCCCCCCCCCC(=O)OCC(O)C1OC(=O)C(O)=C1O (stereo not drawn)	52.9%[activator]
O=C(Nc1ccccc1)c1cc2n(n1)CCN(C(=O)COc1ccccc1)C2	0.7%
CCN(c1cc(-c2ccc(CN3CCOCC3)cc2)cc(C(=O)NCc2c(C)cc(C)[nH]c2=O)c1C)C1CCOCC1	-14.2%&-12.4%
CCC(C(N)=O)N1CCCC1=O (stereo not drawn)	-6.5%
Cc1ccc(-n2c(C)cc(-c3nnc4n3CCCCC4)c2C)cc1	?
COc1ccccc1C(=O)Nc1nnc(S(=O)(=O)N2CCN(c3ccc(F)cc3)CC2)s1	-20.2%
FC(F)(F)c1cc(-c2ccc(CNc3nc(C4CCCC4)nc4ccccc34)cc2)ccn1	i
COc1cc(Cl)c(C)cc1NC(=O)c1cc(CN2CCOCC2)on1	-18.6%
COc1ccc(C(C)NC(=O)c2cc3n(n2)CC(c2ccc(Cl)cc2)OC3)cc1OC (stereo not drawn)	1.4%
Cc1ccc(C(=O)C(=O)O)cc1C	-2.9%
Cc1ccc(-c2noc(-c3nnn(CC(=O)Nc4cccc(C(F)(F)F)c4)c3N)n2)cc1	-20.4%
CC(=O)OC1CC(C)C2(CCC3(CC(=O)OC3O)O2)C2(C)CCCC(C)(C)C12 (stereo not drawn)	2.9%[10 µM]
Oc1ccc(-c2ccc(-c3nc(CCc4ccccc4)no3)cn2)cc1	3.2%
CCn1cnnc1-c1nn(C)c2c1CN(C(=O)CCCc1nc3ccccc3s1)CC2	4.3%

Structures shown so far that have bromine, in the order listed:
SMILES	nsP2pro inh
CN1CCN(c2ncc3c(n2)CCN(Cc2cc(Br)cs2)C3)CC1	?
CN(C)c1nc2c(Br)c(Br)c(Br)c(Br)c2[nH]1	2.3%

The list goes on:
SMILES	nsP2pro inh
Cc1cccc2c1O[C@H]1[C@H](CO)CN([S+](=O)([O-])c3cccs3)[C@@H]21	-2.4%
Cc1nn2c(=O)cc(COC(=O)c3cccc(NC(=O)COc4ccc(C)c(C)c4)c3)nc2s1	-14.4%
O=C(NCc1nnc2n1CCCCC2)C1CC2(CCNCC2)CN1 (stereo not drawn)	i
O=C(Nc1cc(Cl)cc(Cl)c1)c1cc(S(=O)(=O)N2CCc3ccccc3C2)ccc1F	-11.5%
O=[S+]1([O-])NCC2(CCN(Cc3ccccn3)CC2)Nc2ccccc21	i
Cc1ccc(-c2c(CN3CCN(c4cc(Cl)ccc4C)CC3)csc2C)cc1	?
COCCOC1CN(C2CCN(S(C)(=O)=O)CC2)C12CCCCC2 (stereo not drawn)	i
O=C(Nc1cc(F)ccc1F)N1CCC(CN2CCOCC2)CC1	5.3%
O=[S+]([O-])(Nc1ccc(-c2ccccc2)cc1)c1ccc(NCc2ccc(Cl)cc2O)cc1	-10.7%
Cc1ccc(-n2cc(C(=O)OCc3ccc(F)c(F)c3)c3ccccc3c2=O)cc1	-23.8%
Clc1ccccc1-c1ccc2ncnc(NCc3ccc4c(c3)OCO4)c2c1	i
O=C(NC1CCOCC1)c1ccc(OC2CCN(Cc3ccccn3)CC2)cc1	2.7%
CSc1ccc(CCNC(=O)c2ccc(-c3nc(COc4ccccc4)c(C)o3)cc2)cc1	-14.2%
O=P(O)(O)OC1C(OP(=O)(O)O)C(OP(=O)(O)O)C(OP(=O)(O)O)C(OP(=O)(O)O)C1OP(=O)(O)O (stereo not drawn)	-12.7%
Cc1cccc(C)c1OCC(=O)N[C@@H](Cc1ccccc1)[C@@H](O)C[C@H](Cc1ccccc1)NC(=O)[C@H](C(C)C)N1CCCNC1=O	-6.6%&8.0%
CC(=O)N1CCN(C(=O)c2cn3cc(-c4ccc(F)cc4)sc3n2)CC1	i
CSc1ccc(-c2ccc(=O)n3c2[C@@H]2C[C@@H](CN(S(C)(=O)=O)C2)C3)cc1	?
CC1CCc2c(cc(-c3ccccc3)n2-c2ccc(C(=O)NC(C)C)cc2)C1 (stereo not drawn)	-8.6%
CCOc1ccc(-n2c(SCC(=O)NCC3CCCO3)nc3c([nH]c4ccccc43)c2=O)cc1 (stereo not drawn)	-22.6%
CCNC(=O)C1CC(F)(c2ccc(CN3CCCC3)c(F)c2)C1 (stereo not drawn)	-4.2%
Cn1nnnc1Sc1ncnc2scc(-c3cccc(S(C)(=O)=O)c3)c12	i
CC(O)[C@@H](N)C(=O)O (stereo partly drawn)	0.3%
CCC(C)C1NC(=O)C2CCCN2C(=O)C(CC(C)C)OC(=O)CCNC(=O)C(C)N(C)C(=O)C(C(C)C)N(C)C1=O (stereo not drawn)	-3.2%[10 µM]
COC(=O)[C@H](Cc1cccc(C(=N)N)c1)[C@@H](C)NC(=O)c1ccc(-c2cc[n+]([O-])cc2)cc1	7.0%&3.3%
C=CCNc1oc(-c2cccc3ccccc23)nc1C#N	3.4%
Cc1ccc(CNc2ncnc3ccc(-c4sc(C)nc4C)cc23)o1	-3.6%
Cc1ccc(NC(=O)Cn2nnc(C(=O)NCCc3ccccc3)c2N)cc1	-21.6%
COc1cc(/C=C(\C#N)c2nc3ccccc3c(=O)[nH]2)cc(OC)c1OC	-10.6%
CCc1cnn2c(NCc3ccc[n+]([O-])c3)cc(N3CCCC[C@H]3CCO)nc12	-0.4%
COc1ccccc1Cc1nc2ccccc2nc1SCC(=O)NCc1ccccc1Cl	-19.3%
CCn1cc(C(=O)N2CCN(c3ccc(F)cc3)CC2)c(=O)c2cc(S(=O)(=O)N3CCOCC3)ccc21	-8.5%
CCCCNC(=S)NCCCc1cnc[nH]1	i
Cc1cn2c(=O)cc(COC(=O)COc3ccccc3C)nc2s1	-3.5%
Cc1ccccc1CSc1nc2cccnc2n1Cc1ccc(C(=O)NC2CC2)cc1	10.8%
COC(=O)c1ccccc1NC(=O)c1ccc(C#N)cc1	2.4%
CCN(c1ccc(OC)cc1)S(=O)(=O)c1c(C(=O)N2CCCCCC2)c(C)n(C)c1C	-21.6%
Oc1cccc(O)c1	-6.5%
COc1cc2c(cc1OCC1CC1)NC(=O)C21CCN(c2nccs2)CC1	16.2%[39.2 µM]
Cc1ccccc1CSc1cn(CC(=O)N2CCCC2)c2ccccc12	-31.6%
O=S(=O)(c1ccc(-c2csc(=Nc3ccc(OC(F)(F)Cl)cc3)n2CCCO)cc1)N1CCCC1	-29.1%

Exported as comma-separated lines: 7 of the compounds above
Structure,nsP2pro inh
CCN(c1ccc(OC)cc1)S(=O)(=O)c1c(C(=O)N2CCCCCC2)c(C)n(C)c1C,-21.6%
COc1cc2c(cc1OCC1CC1)NC(=O)C21CCN(c2nccs2)CC1,16.2%[39.2 µM]
Cc1ccccc1CSc1cn(CC(=O)N2CCCC2)c2ccccc12,-31.6%
Oc1cccc(O)c1,-6.5%
COC(=O)c1ccccc1NC(=O)c1ccc(C#N)cc1,2.4%
CCCCNC(=S)NCCCc1cnc[nH]1,i
CCn1cc(C(=O)N2CCN(c3ccc(F)cc3)CC2)c(=O)c2cc(S(=O)(=O)N3CCOCC3)ccc21,-8.5%

Next structures
SMILES	nsP2pro inh
C=C(CCC1=C(C)[C@H]2[C@H](CC3[C@@H]4CC=C5C[C@@H](O)C[C@@H](O)[C@]5(C)C4[C@H](O)C[C@@]32C)O1)CO[C@@H]1O[C@H](CO)[C@@H](O)[C@H](O)[C@H]1O (stereo partly drawn)	-10.4%[10 µM]
Oc1ccc(CNc2cccc(F)c2)c2cccnc12	-5.2%
COC(=O)CCC(=O)CN	-3.0%
CCOC(=O)c1ccccc1NC(=O)Cn1c(=O)n(-c2ccc(CC)cc2)c(=O)c2c(C)c(C(=O)N(C)C)sc21	-13.0%
O=C(O)c1cccc(-c2noc(-c3ccccc3C(F)(F)F)n2)c1	i
O=C(c1ccc(Cl)cc1)N1CC2(CCN(CC3CC3)CC2)Cc2ccccc21	1.5%
Cc1ccc(-c2nc3cccc(C)n3c2Nc2ccc(F)cc2)o1	8.9%
COc1ccc(C2C3=C(N=CN(CCN4CCOCC4)C3N)Oc3ccccc32)cc1OC (stereo not drawn)	-14.8%
Cc1ccc(S(=O)(=O)Nc2ccccc2CNc2nc(-c3ccccc3)cs2)cc1	-8.5%
O=C(c1cc(-c2ccccc2)nc2ccccc12)N1CCOCC(CO)C1 (stereo not drawn)	i
Fc1ccc(-c2ccc(CNc3nc(-c4ccccc4C(F)(F)F)nc4ccccc34)cc2)cc1C(F)(F)F	i
CCOc1ccc(/C=C2\SC(=O)N(CCN)C2=O)cc1	78.5%[activator]
CCOc1ccc(NC(=O)N2CCC(N3CCCCC3)CC2)cc1	-13.2%
CCN1CCN(C(=O)c2c(C)nn(-c3ccc(F)cc3)c2-n2cccc2)CC1	-30.7%
COc1ccc(OC2CCN(C(C)=O)CC2)c(C(=O)N2C[C@@H]3CCC[C@H]2C3)c1	i
CN1CCCCCCN(C(=O)c2cccn2C)[C@H]2CCC[C@H]2C1=O	i
O=[S+]1([O-])NC2(CCN(Cc3ccoc3)CC2)COc2ccccc21	-9.2%
N#Cc1c(-c2ccccc2C(F)(F)F)nc2ccccc2c1NCc1ccc(-c2ccnc(C(F)(F)F)c2)cc1	-11.9%
COc1ccccc1CC(=O)N1CCc2c(nc3cc(-c4ccccc4Cl)[nH]n3c2=O)C1	i
O=C(/C=C/c1ccc(O)cc1)O[C@@H]1C[C@@](O)(C(=O)O)C[C@@H](O)[C@@H]1O	7.6%
O=C1COc2ccc(-c3ccsc3)nc2CN1Cc1ccccc1	0.5%[39.2 µM]
COc1ccc(S(=O)(=O)N(CC(=O)NCc2ccccc2)c2ccc(C)cc2)cc1OC	-14.6%
OC[C@H]1O[C@@H](c2ccc(F)c(Cc3cc4ccccc4s3)c2)[C@H](O)[C@@H](O)[C@@H]1O	12.4%
C=CC(=O)N1CCC(Oc2cc3c(Nc4ccc(Cl)c(Cl)c4F)ncnc3cc2OC)CC1	61.4%[activator]
O=C(Cc1ccccn1)N1CCC2(CC1)CCN(Cc1cccs1)c1ccccc1O2	?
COc1ccccc1NC(=O)c1nc(SCc2ccc(F)cc2)ncc1Cl	37.9%[activator]
COCCNc1cc(-c2noc([C@@H]3CCCN3CC(C)C)n2)ccn1	i
COc1cc2c(cc1OC)n(CC(=O)c1cc(C)ccc1C)c(=O)n1nc(CCn3nc(C)cc3C)nc21	-11.4%
COc1ccc(-c2nc3ccccc3c(=O)n2Cc2ccccc2)cc1OCc1ccc(NC(C)=O)cc1	i
COC(=O)CCC(=O)OC[C@]1(C)CCC[C@@]2(C)C3CC[C@]4(C)C=CC3(CCC12)C4 (stereo partly drawn)	-17.2%[10 µM]
CC(C)c1ccc(CN2CCCC3(CCN(c4ncccc4C(N)=O)C3)C2)cc1 (stereo not drawn)	3.7%

Only part of the results is shown; count on the stated rates, not on these rows.
